Source: PubChem (ICCB-Longwood Screening Facility, Harvard Medical School)
MgrA-DNA mod = S. aureus MgrA activity modulators, primary screen, biochemical, S. aureus Newman, fluorescence polarization | MgrA-DNA binding | inhibition, %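 (about 10 µg/mL by stock and volumes)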 | actives 0.13% (n = 84,000);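 active means above 50% in either of two replicates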;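 further: 0% = protein plus DNA without compound and 100% = DNA alone without protein; higher means less MgrA bound to DNA so lower polarization; one replicate is shown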
S aureus helic = inhibitors of S. aureus replicative helicase, primary screen, biochemical, fluorescence unwinding readout | purified S. aureus helicase, fluorescence unwinding assay; about half of the hits fall short of the stated cut | replicative DNA helicase (DnaC/DnaB), Staphylococcus aureus | actives 0.05% (n = 120,000) | inhibition, %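 (tested at about 80 µM)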 | AID 485395, 2010;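 active means both duplicates at 50% or more, or one of them with a favoured structure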;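 further: 0% = mean of negative control wells and 100% = mean of positive control wells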
Starred values were filed as active, the others as inactive; nt = not tested or not shown.

MgrA-DNA mod | S aureus helic | Compound
-2.4 | 10 | O=C(CSc1ccc2ccccc2c1)Nn1cnnc1
nt | 1 | c1ccc(-c2noc(CSc3nc4ccccc4o3)n2)cc1
-3.8 | nt | O=C(Nc1ccc(OC(F)(F)F)cc1)NC1Cc2ccccc2C1
0.8 | -14 | O=C(CSc1cccc[n+]1[O-])c1ccc2c(c1)-c1ccccc1C2
nt | 6 | Cc1ccc2nc(SCC(=O)NC(C)C)nc(=O)n2c1
nt | -2 | CCOC(=O)CSc1nnc(Nc2ccccc2OC)s1
1.0 | -17 | Cc1cc(N)cc2[nH]c(-c3ccc(N)cc3)nc12
nt | -35 | O/N=C(/c1ncon1)N1CCN(c2ccccc2)CC1
nt | -4 | CC1CN(C(=O)C2CCCN2S(=O)(=O)c2cccc3nsnc23)CC(C)O1 (stereo unspecified)
nt | 6 | CC(C)NC(=O)CN1CCN(Cc2ccc(OC(F)(F)C(F)C(F)(F)F)cc2)CC1 (stereo unspecified)
nt | 15 | NC(=O)c1c(N)n(-c2cccc(F)c2)c2nc3ccccc3nc12
4.0 | -1 | O=[n+]1c(CO)c(CO)n([O-])c2ccccc21
1.4 | nt | CCOC(=O)CSc1nc(Nc2ccc(OC)cc2)c2cnc(N(CC)CC)nc2n1
nt | 4 | CC(C)C(=O)Nc1ncc(Cc2ccc(Cl)cc2)s1
-0.2 | nt | O=S(=O)(CS(=O)(=O)NCc1cccs1)NCc1cccs1
nt | 2 | O=C(Cc1cccc2ccccc12)Nc1cccc(C(=O)N2CCOCC2)c1
14 | 6 | O=C(/C=C/c1ccco1)NC(=S)Nc1ccc(Cl)cc1
-0.3 | nt | CCOC(=O)C1=C(C)N=c2s/c(=C\c3ccc(O)c(OC)c3)c(=O)n2C1c1ccc(OC)c(OC)c1 (stereo unspecified)
-1.4 | nt | CC(C)(C)OC(=O)n1ccc2cc(Br)ccc21
0.8 | 8 | N=c1n(CC(=O)c2ccco2)c2ccccc2n1Cc1ccccc1
nt | 17 | COCCN1Cc2cccc(C(=O)NC(C)CCc3ccco3)c2C1=O (stereo unspecified)
-2.1 | nt | CC(C)(C)C(=O)CSc1nc(-c2cccnc2)c(C#N)c(=O)[nH]1
1.4 | nt | O=C(Oc1cc(Cl)cc(Cl)c1)c1cccc(C(F)(F)F)n1
nt | 9 | Cc1ccccc1CCN1C(=O)CCC1(C)C(=O)N1CCCC1 (stereo unspecified)
-0.7 | 8 | C[N+]12CCCCC1C(CN1C(=O)c3ccccc3C1=O)CCC2 (stereo unspecified)

Reformatted: entries from further up
CC(C)NC(=O)CN1CCN(Cc2ccc(OC(F)(F)C(F)C(F)(F)F)cc2)CC1 (stereo unspecified)
  MgrA-DNA mod: nt; S aureus helic: 6

O=S(=O)(CS(=O)(=O)NCc1cccs1)NCc1cccs1
  MgrA-DNA mod: -0.2; S aureus helic: nt

O=C(Oc1cc(Cl)cc(Cl)c1)c1cccc(C(F)(F)F)n1
  MgrA-DNA mod: 1.4; S aureus helic: nt

O=C(Nc1ccc(OC(F)(F)F)cc1)NC1Cc2ccccc2C1
  MgrA-DNA mod: -3.8; S aureus helic: nt

The list continues:
MgrA-DNA mod | S aureus helic | Compound
nt | 5 | COc1ccc(OC)c(CN2CCN(C(=O)c3cc(S(=O)(=O)N4CCOCC4)ccc3Cl)CC2)c1
nt | 20 | Cc1nc2ccccc2nc1OCc1cc(=O)n2cc(Br)ccc2n1
nt | 7 | CCn1c(O)c(C=NCC2CCCCC2)c(=O)n(CC)c1=S
-1.6 | 0 | CC1(C)Cc2ccccc2C(CSc2nc(-c3ccco3)cc(C(F)(F)F)n2)=N1
2.3 | 1 | COc1ccc(-c2coc3cc4oc(=O)c(CC(=O)O)c(C)c4cc23)cc1
1.3 | nt | N#Cc1c(C(F)(F)F)cc(-c2cccs2)nc1S/C=C/C(=O)c1ccccc1
0.1 | nt | CC1CC(=O)N(c2cc(C(F)(F)F)cc(C(F)(F)F)c2)C(=O)C1
-1.1 | nt | O=S1(=O)CCN(Cc2ccc(Cl)c(Cl)c2)CC1
nt | -16 | CC(C)CN(CC(C)C)C(=O)c1cc(-c2ccc(Cl)cc2)n[nH]1
-0.1 | -20 | CCN(CC)S(=O)(=O)c1cc(C(=O)NC(C)(C)C)ccc1Cl
5.2 | 14 | C=CCNC(=S)N(C)C1CCS(=O)(=O)C1 (stereo unspecified)
-1.6 | nt | N#CNC(=NC1CCCCC1)NC1CCCCC1
-0.1 | nt | CCOC(=O)N1CCC(NC(=O)CCCC(=O)O)CC1
nt | 0 | Cc1nn2c(=O)cc(CSc3nc4ccc(NC(=O)c5ccco5)cc4s3)nc2s1
-2.9 | nt | CC(C)c1cccc2c1OC(C(C)C)C(=O)N2 (stereo unspecified)
-0.5 | nt | CCSCCOC(=O)C1=C(C)NC2=C(C(=O)CC(C)(C)C2)C1c1coc2ccccc2c1=O (stereo unspecified)
-0.5 | -1 | Cc1ccc(CN2C(=O)CSc3ccc(NC(=O)NCCC4=CCCCC4)cc32)cc1
-0.5 | nt | OCCNc1nc(-c2ccccc2)c2cc(Br)ccc2n1
2.3 | 11 | C/C(=C\c1ccccc1)C(=O)NC1CCCC1
nt | -10 | CN(CC(=O)Nc1ccc(Cl)c(C(F)(F)F)c1)c1ccc(S(=O)(=O)N2CCCCC2)cn1
14 | -2 | O=c1c(-c2cccc(C(F)(F)F)c2)[n+]([O-])c2ccccc2n1O
1.5 | 9 | Cc1nn(-c2ccccc2)c(N)c1C(NC(=O)c1ccccc1)(C(F)(F)F)C(F)(F)F
-2.2 | 4 | Cc1c(C(=O)N(C)C)sc2[nH]c(=O)n(-c3ccccc3C(F)(F)F)c(=O)c12
nt | -16 | CCN(CC)C(=O)CCn1c(=O)oc2ccccc21
-3.1 | nt | CC(C)c1ccc(/C=C\C(=O)O)cc1

The closing four records of the part above come first, to join the parts:
MgrA-DNA mod | S aureus helic | Compound
1.5 | 9 | Cc1nn(-c2ccccc2)c(N)c1C(NC(=O)c1ccccc1)(C(F)(F)F)C(F)(F)F
-2.2 | 4 | Cc1c(C(=O)N(C)C)sc2[nH]c(=O)n(-c3ccccc3C(F)(F)F)c(=O)c12
nt | -16 | CCN(CC)C(=O)CCn1c(=O)oc2ccccc21
-3.1 | nt | CC(C)c1ccc(/C=C\C(=O)O)cc1
nt | 19 | CCCN(CCC)C(=O)Cn1nnc2sc3c(c2c1=O)CCCC3
nt | 19 | CCCNC(=O)c1ccc(C2SCCCS2)cc1
nt | 3 | O=C(/C=C/c1ccc(C(F)(F)F)cc1)OC1CCCCC1=O (stereo unspecified)
-2.5 | 13 | CCOc1ccccc1CNC(=O)Cn1c(C)c2cnn(-c3ccccc3)c(=O)c2c1C
-1.2 | nt | COc1ccc2[nH]c(-c3ccccc3)cc(=O)c2c1
4.0 | 3 | CSc1nc(N)c2c3c(sc2n1)CCC3
4.9 | 8 | S=c1[nH]nc(CN2CCCCCC2)n1-c1ccccc1
1.2 | 3 | Cc1cc2nc(C(F)(F)F)n3c4ccccc4nc3n2n1
nt | -17 | Cc1[nH]c2ccc(C(=O)N3CCCC3)cc2c1C
nt | -13 | N#Cc1c2c(c(NC3CCCC3)n3c1nc1ccccc13)CCC2
0.4 | 3 | CCOCCc1c(O)nc(SCC(=O)NC(C)c2ccccc2)[nH]c1=O (stereo unspecified)
nt | -16 | O=C1Nc2ccccc2SC1CC(=O)N1CCN(c2ccc(C(F)(F)F)cn2)CC1 (stereo unspecified)
1.6 | nt | CN(C)c1ccncc1C(O)C(F)(F)F (stereo unspecified)
nt | -3 | Cc1cc(C)n(-c2ccc(C(=O)Oc3ccc4oc5c(c4c3)CCCC5)cc2)n1
-1.3 | nt | O/N=C(/c1ccccn1)C1CCCCC1
1.5 | -1 | CC(C)N(Cc1ccccc1)C(=O)N(C)C
nt | -5 | C=C(C)CN(CC)C(=O)CSc1ncnc2ccccc12
nt | -33 | Cc1oc(-c2ccccc2Cl)nc1CSc1nnc(C)n2c1cc1occc12
0.7 | -8 | O=C(C1Cc2ccccc2CN1S(=O)(=O)c1ccc(F)cc1)N1CCCCC1 (stereo unspecified)
nt | 21 | COC(=O)c1cc(S(=O)(=O)N(C)CC2COc3ccccc3O2)cn1C (stereo unspecified)
nt | -126 | CCCCn1c(O)c(C#N)c(C)c(N=Nc2ccc(OC)cc2)c1=O
nt | -19 | CCC(=O)Nc1c2c(nn1-c1ccccc1)CS(=O)C2 (stereo unspecified)
-2.1 | nt | CN(C)c1ccc(/C=N/n2c(=O)[nH][nH]c2=O)cc1
nt | -5 | CC1(C)CC(=O)c2sc3nc(-c4ccc(Br)cc4)cn3c2C1
0.2 | 5 | CCOc1ccc(NC(=O)CN(Cc2ccccc2)S(=O)(=O)c2ccc(C)cc2)cc1
-3.2 | 12 | Cc1ccc(CNC(=O)[C@@H](c2ccccc2)N2Cc3ccccc3C2=O)cc1
0.9 | 4 | CC(C)OC(=O)C(C)Nc1ccc(F)c(Cl)c1 (stereo unspecified)
2.4 | nt | Cc1ccc(C)n1NC(=O)c1ccc(Cl)cc1
1.1 | -2 | Cc1cccc(C(=O)OC2CCCN(C)C2)c1C (stereo unspecified)
-1.0 | nt | Cc1nn(Cc2nnc(-c3cc(C(F)(F)F)cc(C(F)(F)F)c3)o2)c(C)c1Br
-0.5 | nt | Nc1c(-c2n[nH]c(=S)n2-c2ccc(Cl)cc2Cl)cnn1-c1ccccc1
0.4 | -9 | COCCCn1c(=O)c2ccccc2n(CC(=O)NC2CCCC2)c1=O
nt | 3 | COc1ccccc1NC(=O)c1ccc(N2CC3CC(C2)c2cccc(=O)n2C3)c(NC(=O)c2cccnc2)c1 (stereo unspecified)
nt | -19 | COc1ccccc1N1CCN(CCCNC(=O)Cn2cnc3onc(C)c3c2=O)CC1
-4.7 | 3 | CCN(CC)CCNCc1cccs1
nt | -7 | CNCc1ccc(C(C)(C)C)cc1
-0.2 | 5 | CC(NC(=O)CSc1nncn1C)c1ccccc1 (stereo unspecified)
-0.7 | 2 | CCCc1nc(N)c(C#N)c(-c2ccccc2)c1CC
nt | -110 | CCn1c(C(=O)O)c(CNCc2cccs2)c2ccc(C)cc21
nt | 6 | Cc1cc(C(=O)N(C)Cc2ccc(Br)cc2)no1
nt | 7 | O=C1c2oc3ccccc3c(=O)c2C(c2ccncc2)N1c1nccs1 (stereo unspecified)
nt | 7 | COc1cccc(NC(=O)CC(C)NC2CC(C)(C)NC(C)(C)C2)c1 (stereo unspecified)
-2.6 | 8 | O=C1Nc2c(C(F)(F)F)cccc2C12SCCS2
nt | -4 | Cc1ccc2c(c1)C1CN(C)CCC1N2S(=O)(=O)c1ccc(C#N)cc1 (stereo unspecified)
-2.8 | 1 | CC(C)n1nnnc1SCC(=O)OC1CCCCC1
3.0 | nt | Cc1nn(C(=O)C2CC2)c(C)c1Oc1ccc(Cl)cc1
-1.1 | 8 | CCCCNC(=O)Cc1ccc(C)cc1
0.6 | nt | CCOc1cc(C=C2C(=O)NC(=O)NC2=O)ccc1OCCOc1ccc([N+](=O)[O-])cc1
nt | 10 | CCn1c(-c2ccc3c(c2)OCCO3)cnc1SCC(=O)N1CCc2ccccc2C1
-2.0 | nt | COc1ccc(/C=C2/SC(=O)N(CC(=O)Nc3ccc(F)c(Cl)c3)C2=O)cc1OC

Remaining list, next part:
MgrA-DNA mod | S aureus helic | Compound
-0.6 | 6 | C=CCn1c(SC)nc2sc(C)c(C)c2c1=O
-0.3 | -1 | OC(CNC(=S)Nc1ccccc1)c1ccccc1 (stereo unspecified)
-1.1 | nt | O=C(OCC1CC(c2ccccc2)=NO1)c1cccc(C(=O)OCC2CC(c3ccccc3)=NO2)n1 (stereo unspecified)
2.4 | 3 | CCC(c1nnnn1Cc1ccccc1)N(Cc1cccs1)Cc1cc2ccc(C)cc2[nH]c1=O (stereo unspecified)
20 | nt | COc1cc(/C=C2\C(=O)NC(=O)N(c3ccc(C)cc3)C2=O)cc(Br)c1O
2.3 | nt | COC(=O)C1CC2(C(=O)OC)CC(C(=O)OC)(CC(C(=O)OC)C2=O)C1=O (stereo unspecified)
-0.6 | 5 | CCCn1c(N)nc2c1c(=O)[nH]c(=O)n2C
-0.9 | 17 | COc1ccc(CN2CCCC(C(=O)Nc3c(C)cccc3C)C2)cc1OC (stereo unspecified)
nt | 2 | Cc1ccc(/C=N/c2sc(C)c(C)c2C#N)s1
6.8 | 1 | S=c1[nH]ncc2ccccc12
nt | 9 | O=c1[nH]c(CSC2=NCCS2)nc2ccccc12
nt | 18 | CCN1c2ccccc2C2=C(C(c3ccccc3)C(C#N)=C(N)O2)S1(=O)=O (stereo unspecified)
nt | 7 | CC(C)n1cnnc1SCC(=O)NC(=O)c1ccc(Cl)cc1
nt | 16 | Cc1nn(-c2cccc(C(=O)O)c2)c(=O)c2ccccc12
-0.9 | -5 | COc1ccc(NC(=O)Cn2ccc3ccccc3c2=O)cc1OC
0.8 | -10 | O=C(c1cc(Cl)nc2ccccc12)N1CCc2ccccc2C1
0.3 | nt | CC(=NCc1ccc(C#N)cc1)c1ccccc1O
nt | -15 | Cc1nc2ccccc2n1CC(=O)OC(C)C(=O)NC1CCCC(C)C1C (stereo unspecified)
-0.5 | nt | Nc1ccccc1C(=O)N1CCN(c2ccc([N+](=O)[O-])cn2)CC1
nt | 6 | OC12CC3CC(CC(C3)C1)C2
0.8 | -4 | O=C(NC1CCCC1)C1CCCN1C(=O)Nc1ccccc1 (stereo unspecified)
7.8 | 10 | CN(C)/C=C1/C=C(c2ccccc2)SC1=S
-1.4 | nt | Cc1c(S(=O)(=O)NCc2csc(-c3cccs3)n2)cnn1-c1ccccc1
nt | 1 | CCOc1ncccc1C(=O)Nc1ccc(-c2cn3c(n2)SCC3)cc1
-2.4 | 13 | COc1cc(Br)cc2cc(C(=O)N3CCN(c4cc(C)ccc4C)CC3)c(=O)oc12
nt | -7 | NC(=O)C1(NCCNC2(C(N)=O)CCCCC2)CCCCC1

These rows are one share of the data; rates above refer to the full screens.
